# Screens (PubChem)
# Vaccinia Venus = qHTS for Stage-Specific Inhibitors of Vaccinia Orthopoxvirus: Venus Reporter Primary qHTS. AID 720580, 2013. Potency, µM (series often up to 36.5 µM), without a hit: top-dose activity change, negative = inhibition, most hits filed as inhibitors. Vaccinia virus Venus reporter expression, fluorescence. 330,000 compounds, 0.46% hits; active means well fitted inhibition curve with a large enough effect; inconclusive means small, poorly fitted or top-dose-only effect; inactive means no such curve, though single readings can be large or run the other way; tested in A549 cells; further: nearly all actives have a fitted effect of over 30% in size; inactives centre near -10
# VACV mCherry inh = qHTS for Stage-Specific Inhibitors of Vaccinia Orthopoxvirus: mCherry Reporter Primary qHTS. Vaccinia virus mCherry reporter infection, fluorescence; about a quarter of the inactives have no number. Potency, µM (highest dose often 36.5 µM), inactives show top-dose activity change, negative = inhibition, actives largely listed as inhibitors. 310,000 compounds, 0.63% hits. AID 720579, 2013; active = well fitted inhibition curve with a large enough effect; inconclusive = small, poorly fitted or top-dose-only effect; inactive = no such curve, though single readings can be large or run the other way; tested in A549 cells; further: nearly all actives have a fitted effect of over 35% in size; inactives centre near -10
# Numbers without * were called inactive; i = inactive; ? = inconclusive; . = no result given; & = joins results of further samples; [ ] = dose if it differs, or a comment. On the % scale 0 is the no-effect control and ±100 the full control effect; potency means the concentration at half of the fitted maximal effect.
SMILES,Vaccinia Venus,VACV mCherry inh
CCCCn1c(C2CC(=O)N(c3ccc(OCC)cc3)C2)nc2ccccc21 (configuration not stated),-5%,5%
CCOC(=O)c1c(NC(=O)c2nn(CC)cc2Br)sc2c1CCCCC2,-12%,-22%
CCOc1ccc(CNC(=O)CCCc2cn(C)c3ccccc23)cc1,-14%,0%
C[C@H]1CN([C@@H](C)CO)C(=O)CCCn2cc(nn2)CO[C@@H]1CN(C)C(=O)Nc1ccc(C(C)(C)C)cc1,?,-4%
COCCNC(=O)c1cnn(-c2ccc(C)cc2C)c1C1CCN(C(=O)OC(C)(C)C)CC1,5%,-2%
O=C(CSc1nc2ccc(S(=O)(=O)N3CCOCC3)cc2[nH]1)N1CCOCC1,12%,13%
CC(C)CN(C(=O)CCC(=O)OCC(=O)NCCc1ccccc1)c1c(N)n(CC(C)C)c(=O)[nH]c1=O,-3%,i
CC(=O)Nc1cccc(S(C)(=O)=O)c1,-8%,i
CC(C)(C)c1ccccc1OCCN1CCCC1,-4%,-12%
COC(=O)CC1=C(C(=O)OC)[C@@H](c2ccccc2[N+](=O)[O-])C(C#N)=C(N)O1,-9%,-15%
CC(C)CSc1nc2c(c(=O)[nH]c(=O)n2C)n1CC(O)COc1cccc2ccccc12 (configuration not stated),-5%,-12%
O=C1c2ccccc2C(c2nnnn2Cc2ccccc2)N1Cc1ccco1 (configuration not stated),0%,-4%
CCOC(=O)C1(Cc2cccc(F)c2)CCN(Cc2cn(CC)nc2C)CC1,-8%,-2%
COc1ccccc1-c1ccc([C@@H]2C[C@H]3[C@H](CON3C)CN2C(=O)c2ccc(-c3ccccc3)cc2)cc1,?,-8%
COc1ccc(C2CC(=O)c3cc(-c4nc(-c5ccc(Cl)cc5)cs4)c(=O)[nH]c3C2)cc1OC (configuration not stated),-1%,-8%
CC(=O)Nc1ccc(NC(=O)COc2cc(O)c3c(c2)OC(C)(C)CC3=O)cc1,-10%,-7%
Cc1cccc(NC(=O)CN(CC2CCCO2)C(=O)c2oc3ccc(F)cc3c2C)c1C (configuration not stated),-15%,-26%
COc1ccccc1N(CC(O)COc1ccccc1)S(=O)(=O)c1ccccc1 (configuration not stated),-16%,-1%
COC(=O)C[C@H]1c2cc(C(F)(F)F)ccc2S(=O)(=O)N1Cc1ccccc1OC,-9%&-7%,-21%
CCOc1ccc(CNC(=O)C(CC)n2nc(C)n3c(cc4occc43)c2=O)cc1OC (configuration not stated),-11%,i
COc1cccc(CNC(=O)Cc2ccc(-n3c(=O)[nH]c4ccccc4c3=O)cc2)c1,-20%,-26%
CCCOC(=O)c1c(-c2ccccc2)c(-c2ccccc2)nn(C)c1=O,-20%,-12%
C[C@H]1COC(=O)[C@@H](Cc2ccc(F)cc2)CC/C=C/C[C@H](CC(=O)N(CCO)Cc2ccccc2)C(=O)N1,-25%,i
O=C(Nc1cccc(NC(=O)c2ccccc2)n1)c1ccccc1,-12%,-24%
Cc1cc(C)c2c(n1)nn1c(NCCCN3CCOCC3)cc(C)nc21,-11%,i

# Continuation.
SMILES,Vaccinia Venus,VACV mCherry inh
CC1(C)CC(=O)C2=C(C1)Nc1ccccc1NC2c1nc2ccccc2[nH]1 (configuration not stated),-14%,-18%
O=C(COC(=O)CNC(=O)c1ccc(Br)o1)Nc1ccc2c(c1)OCCO2,-7%,.
CCc1ccc(NCc2cc3cc4c(cc3n(CC(=O)Nc3ccccc3OC)c2=O)OCCO4)cc1,11%,4%
O=C1N/C(=C\c2ccsc2)C(=O)N1Cc1ccc(F)cc1,-13%,-10%
Cc1nc([N+](=O)[O-])c(Br)n1CC(=O)c1ccccc1,2.2µM*,.
Cc1ccc(-n2nc(C)cc2N)c(C)c1,3%,-13%
CN(C(=O)COC(=O)c1c[nH]c2ccccc12)c1ccccc1,-9%,i
CCc1cc2c(SCC(=O)NC(=O)c3cccn3C)ncnc2s1,5%,-4%
COc1cc(NC(=O)c2ccc(-n3cnc4cccnc43)cc2)cc(OC)c1,5%,-14%
COc1ccc(NC(=O)CN(C)C(=O)c2c(C)nn(Cc3ccccc3)c2C)cc1,-1%,-12%
COc1ccc(/C=C/C(=O)Nc2ccc3nc(N4CCC(C)CC4)cc(C)c3c2)cc1,-16%,-6%
O=C(N=Nc1c(O)n(C2OC(=O)c3ccccc32)c2ccccc12)c1ccc(O)cc1 (configuration not stated),-17%,.
CCc1cc(C(=O)/C=C/c2cc3c(cc2C)OCCO3)c(O)cc1O,-28%,-32%
CCOc1ccc2oc(=O)cc(CN3CCN(Cc4ccc(C)cc4)CC3)c2c1,-12%,-6%
Cc1sc(N/N=C/c2cccs2)nc1-c1ccccc1,-13%,-24%
CCN(C(=O)CCNC(=O)Cn1cnc2ccccc2c1=O)c1cccc(Cl)c1,-5%&8%,-7%
CCC(=O)N(CC)c1nc(-c2cc(OC)ccc2OC)cs1,-6%,i
Fc1ccc(CNCCc2ccccc2F)cc1,-10%,i
COc1ccc(OC)c(NC(=O)CSc2nnc(C)n2Cc2ccccc2)c1,-11%,-8%
Cc1ccc(-c2cc(=O)c3ccc(F)cc3[nH]2)cc1,-17%,-1%
Cc1cc2nc(NC(=O)C3(C)CCN3C(=O)C(C)C)[nH]c2cc1C (configuration not stated),-1%,-4%
Cc1nc2c(n1O)CCC/C2=N\O,-2%,.
C[C@@H]1CN(Cc2ccc3c(c2)CN(Cc2ccc(Oc4ncccn4)cc2)CCO3)C[C@H](C)O1,-18%,-22%
CCOC(=O)CCCNC(=O)COC(=O)c1cccc(C)c1O,-10%,-18%
CC(=O)Nc1cccc(C(=O)OCc2ccccc2)c1,-13%,-22%

# Complete entries from above.
# `COc1ccccc1N(CC(O)COc1ccccc1)S(=O)(=O)c1ccccc1` (configuration not stated) in the list: Vaccinia Venus: -16%; VACV mCherry inh: -1%
# `CC(C)CSc1nc2c(c(=O)[nH]c(=O)n2C)n1CC(O)COc1cccc2ccccc12` (configuration not stated) in the list: Vaccinia Venus: -5%; VACV mCherry inh: -12%

# Back to the main list with the 3 entries that preceded the break.
SMILES,Vaccinia Venus,VACV mCherry inh
C[C@@H]1CN(Cc2ccc3c(c2)CN(Cc2ccc(Oc4ncccn4)cc2)CCO3)C[C@H](C)O1,-18%,-22%
CCOC(=O)CCCNC(=O)COC(=O)c1cccc(C)c1O,-10%,-18%
CC(=O)Nc1cccc(C(=O)OCc2ccccc2)c1,-13%,-22%
COc1cccc(C(=O)NCCS(=O)(=O)N(C)Cc2ccccc2)c1,-3%,-14%
CC(C)(C)NC(=S)NCc1ccncc1,-2%,-14%
O=C1C2C3c4ccccc4C(c4ccccc43)C2C(=O)N1Cc1ccccn1 (configuration not stated),-19%,-5%
COc1ccc(Oc2c(Cl)cnn(-c3ccc(C)cc3)c2=O)cc1,-3%,.
COc1ccccc1NC(=S)NC(NC(=O)C(C)C)C(Cl)(Cl)Cl (configuration not stated),2%,-12%
O=C(Cn1cc(C(F)(F)F)cc(Cl)c1=O)Nc1cc(Cl)cc(Cl)c1,-8%,i
CN1OC[C@@H]2CN(Cc3ccc(Cl)cc3)[C@H](c3ccc(-n4ccnc4)cc3)C[C@@H]21,-10%,5%
Cc1cnc(C)c(N2CCC(C(=O)NCc3ccco3)CC2)n1,-17%,-16%
CCN1C(=O)[C@H]2[C@@H](c3ccc(C)cc3)N3C(=O)N(c4ccccc4)C(=O)[C@@]3(C)[C@H]2C1=O,-8%,i
COC(=O)c1cccc(NC(=S)NCc2ccc(F)cc2)c1,-10%,-15%
COc1ccccc1OCCn1c(=S)[nH]c2ccccc21,-17%,-23%
Cc1ccc(S(=O)(=O)N2CN(Cc3ccco3)c3nc4ccccc4nc32)cc1C,-12%,-7%[1.46 µM]
N#C/C(=C\c1ccccc1)C(=O)Nc1nncs1,-16%,-11%
O=C(c1ccc(CS(=O)(=O)c2ccc(Br)cc2)o1)N1CCN(c2ccc(F)cc2)CC1,-9%&-10%,-8%&-20%
CCc1cccc(C)c1NC(=O)CSc1nc2ccccc2nc1Cc1ccccc1,-22%,-27%
Cc1ccc(C2=NN(C(=O)c3ccccc3F)C(c3ccccc3F)C2)cc1 (configuration not stated),?,?
CCCCNC(=O)C1(C)CCN1C(=O)c1ccc(C)c(F)c1 (configuration not stated),-4%,-20%
CCC(C)NC(=O)CN(C1CCCCC1)S(=O)(=O)c1ccc(F)cc1 (configuration not stated),-18%,-2%
Cc1ccc(-c2nn3c(C)nnc3c3ccccc23)cc1S(=O)(=O)NC(C)c1ccccc1 (configuration not stated),-18%,-10%
Cc1cc(NC(=O)C(C)SCC(=O)Nc2ccc(SC(F)F)cc2)no1 (configuration not stated),-23%,-18%
Cc1n[nH]c(=O)n1-c1ccc(OC(F)(F)F)cc1,-2%,i
CC1CN(c2ccc([N+](=O)[O-])cc2C(=O)N2CCOCC2)CC(C)N1 (configuration not stated),-1%,-12%
CCN(CC)S(=O)(=O)c1cccc(C(=O)N/N=C(\C)c2cccs2)c1,-19%,i
CCn1ccnc1CN(C)Cc1nc(Cc2cccc(C(F)(F)F)c2)no1,-26%,-11%
Cc1c(C(=O)N2CCCCC2)sc2ncnc(NCCN(C)C)c12,0%,-6%

# (more compounds)
SMILES,Vaccinia Venus,VACV mCherry inh
CC1CCC(C(C)C)C(OCC(O)CN2CCN(Cc3ccccc3)CC2)C1 (configuration not stated),?,.
C[n+]1cc2c3c(ccc2c2ccc4cc5c(cc4c21)OCO5)OCO3,10µM*,11µM*
COc1ccc(Br)c(C(=O)OCC(=O)Nc2cc(C)on2)c1,-4%,i
Cc1cc(N/N=C/c2ccc(O)c(C)c2O)nc(-c2ccccc2O)n1,13µM*,10µM*
O=[N+]([O-])c1ccc(-c2ccc(/C=N/Nc3nc(N4CCCC4)nc(N4CCCC4)n3)o2)cc1,-1%,i
COc1ccc(Cl)cc1Nc1nc(-c2sc(NC(=O)C(C)(C)C)nc2C)cs1,-25%,-29%
COc1cccc(Nc2nc3cc(Cl)c(Cl)cc3nc2-n2nc(C)cc2C)c1,-9%,-13%
CCCc1cc(C(=O)OCC(=O)N2CCN(c3ccc(OC)cc3)CC2)sc1C,-11%,-24%
Cc1nnc(SCc2cc(=O)[nH]c(N3CCN(Cc4ccccc4)CC3)n2)s1,-11%,.
CCC(c1nnnn1Cc1ccc(F)cc1)N(CCCO)Cc1cc2cc3c(cc2[nH]c1=O)OCO3 (configuration not stated),-19%,.
COc1ccc(-c2csc(NNC3=NCCCCC3)n2)cc1,-3%,1%
Cc1ccc(-c2csc(NC(=O)CCNC(=O)c3ccco3)n2)cc1,-12%,-18%
COc1ccc(S(=O)(=O)Nc2ccc(N3CCOCC3)nc2)cc1,-5%,i
CCc1nnc(NC(=O)CSc2nnc(COc3ccc(C#N)cc3)n2-c2ccccc2)s1,-16%,-19%
Cc1ccc(C)c(S(=O)(=O)N2CCN(C(=O)c3ccnn3C)CC2)c1,-10%,-14%
CC(=O)N(C(C)=O)c1ccc2nc(C)[nH]c(=O)c2c1,-3%,-20%
CC(NC(=O)c1cc(Sc2ccc(F)cc2F)nc2ccccc12)c1ccccc1 (configuration not stated),-7%,-12%
COc1ccccc1/C=C/C=N/n1c(C)nnc1C,-1%,4%
COc1cccc(OC)c1C(=O)Nc1ccc(CN2CCCCC2)cc1,7%,-2%
CCNc1c(NS(=O)(=O)c2ccc(Cl)s2)c(=O)oc2ccccc12,0%,-21%
CC(C)CCCN1C(N(C)C)=NC[C@@H]1C,-11%,i
Cc1[nH]n(-c2cccc(Cl)c2)c(=O)c1C=NC12CN3CN(CN(C3)C1)C2,-2%,-12%
Clc1ccccc1CSc1nnc(/C=C/c2ccccc2)o1,-20%,.
Cc1cccc(OCC(=O)N2CCc3ccccc3C2)c1,-1%,i
COc1cc(/C=C/C(=O)NCc2ccccn2)cc(OC)c1OC,-7%,i

# Three entries already listed, arranged by length of the SMILES, ascending:
SMILES,Vaccinia Venus,VACV mCherry inh
COc1ccc(Br)c(C(=O)OCC(=O)Nc2cc(C)on2)c1,-4%,i
COc1ccc(Cl)cc1Nc1nc(-c2sc(NC(=O)C(C)(C)C)nc2C)cs1,-25%,-29%
CCc1nnc(NC(=O)CSc2nnc(COc3ccc(C#N)cc3)n2-c2ccccc2)s1,-16%,-19%

# (cont.)
SMILES,Vaccinia Venus,VACV mCherry inh
COc1ccc(-n2nc(C(=O)Nc3ccc(Cl)cn3)c3c4ccccc4n(C)c3c2=O)cc1,4%,-10%
COc1cc(OC)c(NC(=O)n2ncc3cc(Cl)ccc32)cc1Cl,-6%,-17%
COc1cccc(NS(=O)(=O)c2cc(C)sc2C)c1,-15%,-17%
Oc1ccc2ccccc2c1/C=N/Nc1ccccc1,-5%,-5%
COCCCNCCOCCOc1ccc(C)cc1Br,-22%,-26%
O=C(Nc1cccc(C(F)(F)F)c1)c1ccc2sc([C@@H]3O[C@H](CO)[C@H](O)[C@H](O)[C@H]3O)nc2c1,-9%,8%
O=C(NNS(=O)(=O)c1ccccc1[N+](=O)[O-])c1ccccc1[N+](=O)[O-],-8%,-13%
Oc1ccc(-c2nc(-c3ccc(O)c(O)c3)cs2)cc1,-17%,?
O=[N+]([O-])c1ccc(N(CC2CO2)S(=O)(=O)c2ccccc2)cc1 (configuration not stated),-16%,i
NS(=O)(=O)c1cc(C(=O)OCC(=O)NNC(=O)c2ccccc2)ccc1Cl,-13%,-16%
CC(C)c1ccc[n+](-c2nc([O-])sc2C=O)c1,-10%,i
O=C(Nc1ccc(S(=O)(=O)NCc2ccco2)cc1)C1CCCCC1,-5%,-26%
Cc1ccc(OCC(=O)N(Cc2cccs2)C2CCS(=O)(=O)C2)cc1 (configuration not stated),5%,i
O=S(=O)(NCc1cccnc1)c1ccc2c(c1)OCCO2,-6%,-2%
